BasE inh: BasE siderophore enzyme inhibitors, primary screen, biochemical, Acinetobacter baumannii ATCC 17978, fluorescence polarization; purified BasE, fluorescence polarization binding displacement; hit rate 0.1% among 84,000; AID 485350, 2010; inhibition, % (no concentration beside the values);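 active = both replicates above 25% with normal brightness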;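 also: 0% = negative plate control signal and 100% = positive plate control signal; stock transfer was 100 nL into about 30 µL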
LANA-nucl inh: inhibitors of KSHV LANA-nucleosome binding, primary screen, biochemical, fluorescence polarization, FITC-LANA1-23, chicken nucleosomes; FITC-LANA1-23 / chicken nucleosome fluorescence polarization; hits give low values; z-score (test concentration not listed); hit rate 0.3% among 51,000; AID 720717, 2013;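 active = both repeat wells score below -2 in polarization z-score versus plate sample wells, excluding overly bright wells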;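 also: 100 nL library stock added to about 30 µL; numbers are from one replicate; some results filed as inactive read as strong as hits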
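Test system: purified chicken nucleosomes with FITC-labelled LANA N-terminal peptide (1-23); Input: 240 nM purified chicken nucleosomes (480 nM peptide binding sites), final; Medium: TEN-BT buffer, pH 7.5; Timing: 10–45 min, room temperature; Technique: fluorescence polarization, 480 nm excitation, 535 nm parallel and perpendicular emission; Replication: duplicates.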
* hit, by the source's call; . = no result given; & = joins results of further samples. A portion of the library; count on the stated rates, not on these rows.

# | Molecule | BasE inh | LANA-nucl inh
1 | O=C(NCc1ccccc1CN1CCOCC1)c1n[nH]c(=O)c2ccccc12 | 1.1 | .
2 | C/C(=C\C(=O)Nc1ccc(Cl)cc1)NCc1ccco1 | -1.0 | .
3 | O=C(NC1CCCC1)c1ccc2c(c1)C(=O)N(CC1CCCO1)C2=O (stereo unspecified) | 2.5 | -0.6
4 | COc1nc(OC)nc(N2CCCc3cccc(C)c32)n1 | -0.9 | 1.1
5 | CC1C/C(=N\NC(=O)C2COc3ccccc3O2)CC(C)(C)C1 (stereo unspecified) | 3.1 | .
6 | CCC(=O)N1N=C(c2ccc(F)cc2)CC1c1ccc(OC)cc1 (stereo unspecified) | -2.5 | -0.041
7 | CCOC(=O)NS(=O)(=O)c1ccc(-c2cc(C(F)(F)F)n(C)n2)s1 | -1.4 | .
8 | NC(=O)Cn1cc(/C=C2/C(=O)NC(=O)N(C3CCCCC3)C2=O)c2ccccc21 | 7.1 | .
9 | CC1=C(C#N)C(=O)NC(=O)/C1=C/c1ccc(N(C)C)cc1 | 2.8 | .
10 | CCOc1ccc(-c2c(C#N)c(N)nc(SCC(=O)c3ccc(Cl)cc3)c2C#N)cc1 | 2.0 | .
11 | CC12CCC(c3c1noc3C(F)(F)F)C2(C)C (stereo unspecified) | -0.2 | .
12 | CCOC(=O)C1CCN(C2c3ccccc3-c3ccccc32)CC1 | -0.1 | .
13 | CCC(=O)Nc1sccc1C(=O)OC | 2.4 | -0.67
14 | ONc1cccnc1-n1nc(C(F)(F)F)cc1C(F)(F)F | . | 0.23
15 | O=C1CNC(=S)N1CCOc1ccccc1Cl | -1.2 | .
16 | Cc1cccc(-c2noc(NC(=O)O/N=C/c3c(Cl)cccc3Cl)n2)c1 | 6.1 | -1
17 | Cc1occc1-c1n[nH]c(=S)o1 | 3.9 | .
18 | NS(=O)(=O)c1ccc(Cl)nc1 | -1.0 | .
19 | Cn1c2nc3ccccc3nc2c2c(=O)n(C3CCCC3)cnc21 | -1.3 | 0.3
20 | CC(=O)N[C@@H](CS)C(=O)O | -1.0 | 0.26&1.6
21 | CCc1cc2c(=O)c(-c3nc4ccccc4n3C)c(C)oc2c(CN2CCCCC2)c1O | 0.4 | -0.3
22 | COCCOC(=O)c1c(C)oc2ccc(OCc3cc(C(=O)OC)oc3C)cc12 | -1.5 | 0.88
23 | COC(=O)c1cc2c(ccn2-c2ccc(F)cc2)n1CC(=O)N1CCCCC1 | 0.0 | 0.16
24 | Cn1nnnc1SCC(=O)NN1C(=O)NC(C)(c2ccccc2)C1=O (stereo unspecified) | 1.6 | .
25 | O=C(Nc1ccc(Cl)cc1)Nc1csc(N2CCCCC2)n1 | -16 | .
26 | Cc1nn(-c2ccccc2)c2[nH]cc(C(=O)Nc3ccccc3)c(=O)c12 | 0.5 | -1.1
27 | CN(N)c1nc2ccccc2nc1C(F)(F)F | . | 0.12
28 | CC1Cc2ccccc2N1CC(=O)Nc1ccc(SC(F)F)cc1 (stereo unspecified) | -1.6 | .
29 | O=C(COc1ncnc2sc3c(c12)CCC3)NCCN1C(=O)CSC1=O | 1.5 | .
30 | CS(=O)(=O)c1ccc(Cl)c(NC(=O)CN2CCCSc3ccccc32)c1 | 0.7 | .
31 | CCc1ccc(C2CC(=O)Nc3n[nH]c(-c4ccccc4)c32)cc1 (stereo unspecified) | 1.2 | -0.16
32 | O=C(O)C1CCC(=O)N(C2CCCCC2)C1c1ccccc1Cl (stereo unspecified) | 1.4 | -1
33 | COC(=O)c1cc(OCc2c(C)noc2C)cc(C(=O)OC)c1 | 1.9 | -0.38
34 | CCc1cc2c(NC(C)C(=O)O)ncnc2s1 (stereo unspecified) | -0.1 | .
35 | Cc1ccc(C(=O)N(CC(C)C)CC(C)C)cc1C | 2.6 | -1
36 | Cc1cc2nc(SCCN3CCCC3)[nH]c2cc1C | -2.6 | .
37 | COC(=O)Nc1ncc(CN2CCCCC2)s1 | -0.6 | 0.03
38 | CC(C)c1cc2cc(/C=C/C(=O)O)c(O)cc2o1 | 10 | 0.19
39 | Cc1cccc(N2CC(C(=O)Nc3ccc(N4CCOCC4)cc3)CC2=O)c1C (stereo unspecified) | 2.8 | .
40 | CCOC(=O)C1=C(C)NC(SC)=NC1c1ccc(OC)cc1 (stereo unspecified) | 1.1 | 0.33

Reprinted at random: 2 entries already listed, in no set order.
# | Molecule | BasE inh | LANA-nucl inh
27 | CN(N)c1nc2ccccc2nc1C(F)(F)F | . | 0.12
28 | CC1Cc2ccccc2N1CC(=O)Nc1ccc(SC(F)F)cc1 (stereo unspecified) | -1.6 | .

Arranged by value in LANA-nucl inh (high to low): 4 of the compounds above
entry	molecule	LANA-nucl inh
40	CCOC(=O)C1=C(C)NC(SC)=NC1c1ccc(OC)cc1 (stereo unspecified)	0.33
21	CCc1cc2c(=O)c(-c3nc4ccccc4n3C)c(C)oc2c(CN2CCCCC2)c1O	-0.3
32	O=C(O)C1CCC(=O)N(C2CCCCC2)C1c1ccccc1Cl (stereo unspecified)	-1
26	Cc1nn(-c2ccccc2)c2[nH]cc(C(=O)Nc3ccccc3)c(=O)c12	-1.1

The listing continues.
# | Molecule | BasE inh | LANA-nucl inh
41 | Cc1nn(C)c2c(=O)c(=O)c2n(C)[nH]1 | 5.0 | -3.6*
42 | O=C1OCCC1Sc1nc2ccccc2c(=O)n1Cc1ccco1 (stereo unspecified) | -4.5 | .
43 | CCCOc1ccc(/C=C/C(=O)Nc2nccs2)cc1OC | 0.1 | .
44 | Cc1cc(C)n(-c2nc3ccccc3nc2N2CCCC2)n1 | 3.2 | 0.63
45 | Cc1cc(C(=O)OCC(=O)Nc2ccccc2C(=O)NC(C)c2ccccc2)no1 (stereo unspecified) | 1.7 | .
46 | O=C(NCCOc1nc(N2CCOCC2)nc(N2CCOCC2)n1)Nc1ccccc1 | 0.5 | 0.2
47 | N#CC(c1cccs1)c1ncc(C(F)(F)F)cc1Cl (stereo unspecified) | . | -0.07
48 | COc1ccccc1OC(=O)NC(C)C | -2.0 | .
49 | CCCN(C(=O)c1ccc(S(=O)(=O)N2CCCC2)cc1)C1CCS(=O)(=O)C1 (stereo unspecified) | 1.4 | .
50 | COC(=O)C1CN(C(=O)c2ccc(C)cc2)c2ccccc2O1 (stereo unspecified) | -3.2 | 2.1
51 | O=C(N/N=C/c1ccc(O)c(O)c1O)c1ccccc1-n1cccc1 | 5.8 | .
52 | COc1ccc(C2C(C#N)C(C#N)N3CCCN23)cc1 (stereo unspecified) | 2.5 | -0.15
53 | OC1CCCCC1Sc1nc2ccccc2s1 (stereo unspecified) | 0.9 | -1.1
54 | NC(=O)c1cc(-c2cccnc2)no1 | 3.0 | -0.91
55 | CCCNC(=O)c1cc2sc(Cl)cc2n1C | 0.4 | -0.13
56 | CCCC(=O)Nc1nnc(CCC)s1 | -0.8 | 0.78
57 | FC(F)(F)Oc1ccc(N=Cc2c(Cl)nc3sccn23)cc1 | . | -1.3
58 | COc1ccc(OCCSc2cccc[n+]2[O-])cc1 | 1.0 | .
59 | Cc1cc(C)c2cc(C(=O)Nc3ccc4c(c3)OCO4)[nH]c2c1 | 0.2 | -0.35
60 | Nc1nc(CN2CCOCC2)nc2ccccc12 | -2.1 | .
61 | CC1CCCC(C)N1C(=O)Cn1cnc(NC(=O)c2cc(-c3ccc(F)cc3)no2)n1 (stereo unspecified) | 0.4 | 0.042
62 | COc1cc(C(=O)N2CCN(CC(=O)Nc3ccc(Cl)c(C(F)(F)F)c3)CC2)cc(OC)c1OC | 2.9 | .
63 | Cc1nn(C2CCS(=O)(=O)C2)c(Cl)c1/C=C1\C(=O)N(C)C(=S)N1C (stereo unspecified) | 2.5 | .
64 | O=C(NCc1ccccc1)c1ccc(COc2ccccc2Br)o1 | 0.1 | -0.16
65 | CN(C)c1ccc(C(CNS(C)(=O)=O)N2CCCC2)cc1 (stereo unspecified) | 4.0 | -0.13
66 | COc1ccc(-c2n[nH]c(=S)n2/N=C/c2ccccc2Br)cc1OC | -2.9 | 0.84
67 | CC(C)(C)C(=O)CSc1nnc2n(-c3ccccc3)c(=O)c3ccccc3n12 | -2.4 | .
68 | CC(C)OC(=O)NCCN1C(=O)C2C3C=CC(C3)C2C1=O (stereo unspecified) | 2.0 | -0.25
69 | COc1ccc(C2CC(c3ccccc3)=NN2C(=O)Cn2cnc3c2c(=O)n(C)c(=O)n3C)cc1 (stereo unspecified) | -2.6 | .
70 | COc1cc2c(cc1OC)C(C)N(C(=O)NC1CC(=O)N(c3ccc4c(c3)OCCO4)C1)CC2 (stereo unspecified) | -0.7 | -0.6
71 | O=C(CSCCOc1ccccc1F)Nc1ccnn1C1CCCC1 | -1.3 | .
72 | CC1CC(C)CN(C(=O)COC(=O)CCc2ccc(S(=O)(=O)N3CCOCC3)cc2)C1 (stereo unspecified) | -0.7 | .
73 | CCOC(=O)c1cc(-c2ccccc2)sc1NC(=O)C(C)N1CCN(C(=O)c2ccco2)CC1 (stereo unspecified) | 0.7 | .
74 | Cc1onc(-c2ccccc2)c1C(=O)N=S(C)(C)=O | -0.4 | -0.052
75 | CCOc1ccc(C(C)(C)C)cc1S(=O)(=O)Nc1cccnc1 | -0.2 | -0.84
76 | Cc1ccc(C2=NN3C(=O)c4ccccc4C3C2)cc1 (stereo unspecified) | -2.2 | .
77 | COc1ccc(NS(=O)(=O)c2cc3c(cc2Cl)NC(=O)CO3)c(OC)c1 | 2.1 | -0.35
78 | CN1CCC(=NNC(=O)CN(c2ccccc2)S(=O)(=O)c2ccccc2)CC1 | -2.1 | 0.084
79 | CCCNC(=O)CSc1n[nH]c(=S)s1 | 0.8 | .
80 | CN1C(=O)C2(OCC(COc3ccc(Cl)cc3)O2)c2ccccc21 (stereo unspecified) | -3.1 | 0.091
81 | O=C(O)c1cc2ccc3cccc4ccc(c1)c2c34 | 3.7 | .
82 | CC1=NN(c2ccc(C)c(C)c2)C(=O)/C1=C/c1ccc(-c2ccc3c(c2)C(=O)NC3=O)o1 | 1.9 | 0.38
83 | O=C(O)c1ccc[nH]c1=S | 1.4 | .
84 | Cc1nn(C)c(Cl)c1C(=O)NCC(=O)O | . | -1.1
85 | Cc1cc(NC(c2cccnc2)c2ccc3cccnc3c2O)no1 (stereo unspecified) | 4.4 | .
86 | CCc1cc2c3c([nH]c2cc1S(=O)(=O)NC(C)CC)CCCC3=O (stereo unspecified) | 1.2 | -0.67
87 | O=C(CCc1nc(-c2ccc(Cl)cc2)no1)N1CCCC1 | -0.7 | 0.62
88 | OC(CNc1ccccc1Cl)Cn1nnnc1-c1ccccc1 (stereo unspecified) | 1.4 | 0.099
89 | CN(C)CCNC(=O)c1c(O)c2c(n(C3CC3)c1=O)CCCC2 | -1.8 | -1.1
90 | N#Cc1cc(C(=O)c2ccccc2O)cn2c1nc1ccccc12 | -4.1 | .
91 | CCc1ccc(NC(=O)CSC2=NC3C(=O)N(C)C(=O)N(C)C3N2C)cc1 (stereo unspecified) | 0.8 | 1.3
92 | C1CCN2C[C@@H]3C[C@H](CN4CCCC[C@@H]34)[C@H]2C1 | -0.4 | 1.4&0.98
93 | CCOC(=O)c1cc(C#N)c(Cl)nc1-c1ccccc1 | . | -1.2
94 | Cc1nc2c(c(C)nn2C)c(C)c1CCC(=O)NCc1ccccc1 | -1.8 | 1.3
95 | O=c1c2cnn(-c3ccccc3)c2ncn1/N=C/c1ccc(Cl)cc1 | 0.3 | .
96 | CCN(CC)S(=O)(=O)c1ccc(-c2ccc(/C=N/NC(=O)CNc3ccc(OC)cc3)o2)cc1 | 2.3 | .
97 | Cc1ccc(-n2c(SCCn3ccnc3)nnc2-c2ccc(Cl)cc2)cc1 | -1.5 | .
98 | N#Cc1sc2nc3ccccc3n2c1N | 1.0 | 0.043
99 | CC1CC(C)CN(S(=O)(=O)c2ccc(C(=O)NCc3ccco3)cc2)C1 (stereo unspecified) | 0.1 | .
100 | Cc1ccc(S(=O)(=O)/N=C(\c2ccccc2)N2CCCC2)cc1 | 1.4 | 0.89

Later entries.
# | Molecule | BasE inh | LANA-nucl inh
101 | COc1cc(S(C)=O)ccc1-c1nc2ncccc2[nH]1 (stereo unspecified) | 0.7 | 1.8
102 | O=C(CN(Cc1ccc2c(c1)OCO2)C(=O)CSc1nc2ccccc2o1)NC1CCCCC1 | 2.4 | 0.95
103 | CC1CN(S(=O)(=O)c2ccccc2)C(C)N1C(=O)N1CCOCC1 (stereo unspecified) | 5.2 | -0.42
104 | CC(Sc1nc(-c2ccccc2)cc(C(F)(F)F)n1)C(N)=O (stereo unspecified) | -1.4 | 2.2
105 | CCCCCCCC1N[C@H](C(=O)O)CS1 (stereo partly specified) | -0.1 | 0.52
106 | O=C(NCc1ccc(F)cc1)C1CC(=O)N(Cc2ccco2)C1 (stereo unspecified) | . | -1
107 | Cn1cc(C(CC(=O)O)C(=O)O)c2ccccc21 (stereo unspecified) | -2.1 | -1.2
108 | Cc1[nH]c2ccccc2c1C(=O)CN1c2ccccc2CC1C (stereo unspecified) | -3.9 | .
109 | Cc1oc2c(F)c(F)c(F)c(F)c2c1S(=O)(=O)Nc1cccc(C(F)(F)F)c1 | -0.1 | -0.3

Record cards, from the list above. Screens in order: BasE inh, LANA-nucl inh
CN1CCC(=NNC(=O)CN(c2ccccc2)S(=O)(=O)c2ccccc2)CC1 is listed as -2.1, 0.084
N#Cc1cc(C(=O)c2ccccc2O)cn2c1nc1ccccc12 is listed as -4.1, .
CC1C/C(=N\NC(=O)C2COc3ccccc3O2)CC(C)(C)C1 (stereo unspecified) is listed as 3.1, .
COc1cc(S(C)=O)ccc1-c1nc2ncccc2[nH]1 (stereo unspecified) is listed as 0.7, 1.8
O=C1OCCC1Sc1nc2ccccc2c(=O)n1Cc1ccco1 (stereo unspecified) is listed as -4.5, .
